High-throughput results deposited in PubChem by National Center for Advancing Translational Sciences (NCATS).
2A StopGo – lowers the luciferase signal of an FMDV 2A StopGo reporter | 1.2% of 410,000 active | AID 1159524 | Potency, µM (series often up to 57.9 µM), for inactives: at the top dose signal change, negative = less light | human cells with a luciferase reporter of 2A StopGo recoding; control for the full effect not named in the record; active = well fitted falling curve with a large enough effect; inconclusive = small, poorly fitted or top-dose-only effect; inactive = no such curve, though single readings can be large or run the other way; tested in HEK293T cells; also: % is scaled to controls: 0 for no effect and ±100 for the full control effect; nearly all actives have a fitted effect of over 45% in size; luciferase light after 4 h
SARS PLpro yeast – inhibitors of SARS-CoV papain-like protease in yeast | Potency, µM (top dose mostly 32.9 µM), for inactives: at the highest dose activity, positive = growth rescue | AID 485353 | 0.19% of 330,000 active | S. cerevisiae expressing SARS-CoV PLpro, growth rescue; control for the full effect not named in the record; active means well fitted rising curve with a large enough effect; inconclusive means small, poorly fitted or top-dose-only effect; inactive means no such curve, though single readings can be large or run the other way; also: 0% is about no effect; nearly all actives have a fitted effect of over 55% in size; growth read by luminescence after 48 h
Cruzain Triton – inhibitors of Trypanosoma cruzi cruzain with detergent | 0.43% of 200,000 active | Potency, µM, for inactives: max response, negative = inhibition, most hits filed as inhibitors | purified cruzain, Z-FR-AMC fluorescence, 0.01% Triton | P25779;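 also: plate controls were neutral wells for no effect and buffer without enzyme for full effect; nearly all actives have a fitted effect of over 40% in size; top concentration of the series not given in the record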
Target sequence (P25779 123-467 limits assumed): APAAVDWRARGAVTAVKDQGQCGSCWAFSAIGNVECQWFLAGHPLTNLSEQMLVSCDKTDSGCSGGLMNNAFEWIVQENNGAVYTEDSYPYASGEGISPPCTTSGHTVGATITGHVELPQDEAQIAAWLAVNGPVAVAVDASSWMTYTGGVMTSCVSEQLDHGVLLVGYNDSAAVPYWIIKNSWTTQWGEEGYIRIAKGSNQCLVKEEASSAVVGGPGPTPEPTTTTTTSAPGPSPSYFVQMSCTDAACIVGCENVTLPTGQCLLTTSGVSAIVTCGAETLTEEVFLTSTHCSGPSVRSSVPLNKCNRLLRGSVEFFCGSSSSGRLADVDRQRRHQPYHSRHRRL
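Detergent-containing arm of a paired screen for aggregation-based inhibition: 0.01% Triton X-100 present. Cruzain at 1.5 nM cleaved 2 uM Z-FR-AMC at pH 5.5 with 5 mM DTT; AMC fluorescence gain over 60 s measured activity.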
Cruzain inh noDet – inhibitors of Trypanosoma cruzi cruzain without detergent | purified cruzain, Z-FR-AMC fluorescence, no detergent | AID 1476 | Potency, µM, for inactives: max response, negative = inhibition, hits mostly inhibitors | P25779 | 2.3% of 200,000 active;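 also: plate controls were enzyme without inhibitor for no effect and buffer without enzyme for full effect; nearly all actives have a fitted effect of over 40% in size; top concentration of the series not given in the record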
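Purified cruzain at 1.5 nM, pre-incubated 15 min with compound at room temperature in 100 mM sodium acetate pH 5.5, 5 mM DTT, 0.00005% Triton X-100. Reaction started with 2 uM Z-FR-AMC; AMC fluorescence increase over 60 s gives rate.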
LASV entry inh – blocks Lassa virus binding to or entry into cells. Potency, µM (series often up to 37.9 µM), without a hit: at the highest dose activity change, negative = inhibition, most hits filed as inhibitors. Lassa virus pseudotype entry inhibition, cell reporter; control for the full effect not named in the record. 1.2% of 300,000 active; active means well fitted inhibition curve with a large enough effect; inconclusive means small, poorly fitted or top-dose-only effect, or effect the other way; inactive means flat fitted curve, though single readings scatter; tested in HEK293 cells; also: % is scaled to controls: 0 for no effect and ±100 for the full control effect; nearly all actives have a fitted effect of over 50% in size; luciferase read-out
RE007 growth inh – less growth of the S. pombe RE007 Vpr strain. Potency, µM (doses to about 92.2 µM), for inactives: at the top dose activity change, negative = less growth. S. pombe RE007 Vpr strain, BacTiter-Glo ATP luminescence, 24 h; control for the full effect not named in the record. 0.21% of 360,000 active; active = well fitted falling curve with a large enough effect; inconclusive = small, poorly fitted or top-dose-only effect; inactive = no such curve, though single readings can be large or run the other way;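 also: % is scaled to controls: 0 for no effect and ±100 for the full control effect; nearly all actives have a fitted effect of over 50% in size; the assay follows cell death caused by Vpr and the record does not say whether a fall means rescue or toxicity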
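Fission yeast strain RE007, carrying one chromosomally integrated HIV-1 vpr copy, was seeded at OD 0.01 in PMG+AL medium with 23 nL pinned compound. After 24 h at 30 °C and 99% humidity, viability was read by BacTiter-Glo luminescence.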
NS1 inh – influenza NS1 inhibition; S. cerevisiae slowed by influenza A NS1, growth recovery by OD600; Potency, µM (titrated, usually from 46.1 µM), for the others: at the top dose activity, positive = more growth; 0.4% of 270,000 active; AID 2326; active means well fitted rising curve with a large enough effect; inconclusive means small, poorly fitted or top-dose-only effect; inactive means no such curve, though single readings can be large or run the other way; also: nearly all actives have a fitted effect of over 50% in size
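S. cerevisiae expressing influenza A NS1, grown in glucose, washed, then diluted 1:100 into pH 6.0 -URA galactose medium with 23 nl compound. Growth recovery read as OD600; NS1-free strain serves as control.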
MARV entry inh – Marburg virus entry inhibition | Marburg virus pseudotyped entry inhibition, cell reporter; control for the full effect not named in the record; about a third of the inactives were read at about 46 µM | Potency, µM (doses to about 37.8 µM), for the others: at the top dose activity change, negative = inhibition, actives largely listed as inhibitors | 1.8% of 300,000 active; active = well fitted inhibition curve with a large enough effect; inconclusive = small, poorly fitted or top-dose-only effect, or effect the other way; inactive = flat fitted curve, though single readings scatter; tested in HEK293 cells; about a fifth of its hits are not listed in these tables; also: % is scaled to controls: 0 for no effect and ±100 for the full control effect; luciferase read-out
* marks the source's active call; other numbers are inactive results; ? = inconclusive; . = no result given; & = joins results of further samples; [ ] = dose if it differs, or a comment. Unless noted, calls follow the shape of the dose curve; as a rule, active = well fitted curve in the direction sought with a large enough effect; inconclusive = small, poorly fitted or top-dose-only effect, or another doubt; inactive = no such curve, though single readings can be large; an effect the other way counts as inactive or inconclusive. Potency is read from the fitted curve at half-maximal effect.

SMILES	2A StopGo	SARS PLpro yeast	Cruzain Triton	Cruzain inh noDet	LASV entry inh	RE007 growth inh	NS1 inh	MARV entry inh
Cc1ccccc1N1CC(=O)N(c2ccccc2C)CC1=O	9%	-6%	5.6%	-7%	-5%	-2%	-1%	0%
CC1CN(c2sc(S(C)(=O)=O)nc2S(=O)(=O)c2ccc(Cl)cc2)CC(C)O1 (stereo not given)	6%	3%	.	.	.	6%	10%	.
c1ccc(-c2noc(-c3ccc4ccccc4c3)n2)nc1	4µM*	-14%	-15%	9%	0.29µM*	?	-2%	1.6µM*
COc1ccc(C(=O)/C=C/Nc2ccc(S(=O)(=O)Nc3onc(C)c3C)cc2)cc1	16%	18%	-8.0%	-9%	9%	-20%	-29%	?
Cc1ccc(S(=O)(=O)N(C)c2ccc(OCC(=O)N3CCCCC3)cc2)cc1	1%	4%	.	.	-18%	16%	2%	-26%
O=C1CC(c2cccnc2)=NN1c1ccc(Cl)cc1Cl	3%	5%	.	.	-22%	-5%	.	6%[46.1 µM]
O=c1c2ccccc2nc(Cc2ccccc2)n1-c1ccccc1O	-20%	1%	.	.	-3%	25%	-2%	3%[46.1 µM]
COc1ccc(Cl)cc1C(=O)NNC(=O)c1cccs1	75%[activator]	5%	.	.	14%	-12%	.	20%
CC(C)CN1C(=O)C(=Nc2cccnc2)c2ccccc21	-15%	-5%	.	.	.	3%	-6%	.
NS(=O)(=O)c1ccc(NC(=O)c2cc(-c3cc(Cl)ccc3O)n[nH]2)cc1	-24%	4%	.	.	?	-2%	6%	?
COCCn1c(C)cc2c(c1=O)C(c1ccccc1F)C(C#N)=C(N)O2 (stereo not given)	-4%	2%	1.7%	-2%	1%	14%	-2%	28%
CN(C(=O)COC(=O)c1ccc2c(c1)OCCO2)C1CCCCC1	24%	5%	.	.	2%	2%	.	6%
COc1ccc(C(=O)NCC(c2ccco2)N2CCc3ccccc32)cc1OC (stereo not given)	-22%	?	.	.	-26%	-3%	.	?
CCN(C(=O)COc1ccc(C)cc1OC)c1cccc2ccccc12	-24%	4%	.	.	-13%[46.1 µM]	4%	.	-12%
COc1ccc(-c2nc(CSCC(=O)N3CCN(c4ccccc4)CC3)c(C)o2)cc1	35µM*	.	-2.3%	?	-7%[46.1 µM]	.	.	0%[46.1 µM]
CC(=O)Nc1cccc(OCC(O)Cn2c(C)nc3ccccc32)c1 (stereo not given)	-5%	0%	-3.0%	7%	14%	-2%	12%	5%
Cc1noc(-c2ccccc2)c1NC(=O)Nc1ccc(Cl)cc1	-2%	0%	.	.	-13%	-17%	-4%	-28%[46.1 µM]
CN1CCN(c2ccc(NC(=O)COc3cccc4ccccc34)cc2)CC1	-12%	-6%	.	.	-4%	1%	13%	?
O=C(CCn1cnc2ccccc21)N/N=C/C=C/c1ccccc1	-20%	-1%	.	.	-8%[46.1 µM]	-9%	?	?
S=c1[nH]nc(C2CCCCC2)n1/N=C/c1ccco1	-16%	5%	-2.3%	-2%	-9%	0%	16%	-21%
Cc1ccc2c(Cl)cc(Cl)c(OCC(=O)N3CCCC3)c2n1	-11%	2%	.	.	9%	-1%	.	15%
CCN(CC)c1ccc2cc(-c3nc(-c4ccccc4)no3)c(=O)oc2c1	56%[activator]	.	1.1%	-5%	0%[46.1 µM]	.	.	.
Oc1ccc(N=Nc2ccccc2)o1	?	-12%	.	.	.	?	-64%	.
CCc1cnc2c(c1SCC(=O)c1ccc(OC)cc1)c(=O)n(C)c(=O)n2C	28µM*	.	-5.5%	?	?	.	.	.
O=C(NNCc1ccccc1)c1ccccc1	-16%	.	.	.	-29%[46.1 µM]	-25%	.	?
COC(=O)c1ccc(NC(=O)Cn2nnc3ccccc32)cc1	16%	?	3.1%	11%	2%	9%	0%	?
COc1cccc(Cn2c(=O)n(CC3CCC(C(=O)NC(C)C)CC3)c(=O)c3sccc32)c1 (stereo not given)	-10%	.	0.1%	-2%	16%[46.1 µM]	.	.	.
Cc1nn(C)cc1CNC(=O)Nc1ccc(Cl)cc1	38%[activator]	2%	-5.9%	?	-1%	3%	-16%	15%
Clc1ccc2nc(CSc3nncn3-c3ccccc3)cn2c1	.	5%	1.9%	-6%	-20%	-16%	1%	1%
COc1ccccc1NC(=O)c1nn(-c2ccc(OC(F)(F)F)cc2)ccc1=O	-15%	1%	-2.2%	?	0%	-1%	2%	-13%
CCOc1ccccc1CN(Cc1ccco1)S(=O)(=O)c1ccc(-n2cnnn2)c(OC)c1	42%[activator]	-5%	1.8%	12%	?	-4%	-1%	?
Cn1cccc1/C=N/NC(=O)Cc1ccccc1	23%	2%	.	.	7%[46.1 µM]	-2%	-3%	-11%[46.1 µM]
O=C(Nc1cc([N+](=O)[O-])ccc1N1CCCC1)c1ccccc1	-11%	-2%	.	.	-28%	9%	-4%	?
Cc1ccc2c(c1)N(C(=O)CCC(=O)NCc1cccc(Br)c1)CC(C)O2 (stereo not given)	?	-8%	.	.	.	11%	-64%	.
COc1ccccc1Cn1c(CCCO)nc2ccccc21	-21%	3%	0.5%	9%	1%	-6%	-1%	0%
CCc1noc(C)c1C(=O)Nc1cc(S(=O)(=O)N(CC)CC)ccc1N1CCCC1	-12%	-1%	.	.	11%	2%	.	-24%
C=C1CCC[C@]2(C)C[C@H]3OC(=O)C(CN4CCCCC4CO)[C@H]3CC12 (stereo not given in full)	?	-1%	.	.	-25%	?	?	11µM*
COc1ccccc1OC(C)C(=O)Nc1c(C(=O)c2ccc(Cl)cc2)oc2ccccc12 (stereo not given)	-9%	.	-1.0%	1%	15%[46.1 µM]	.	.	-12%[46.1 µM]
CCC(C)n1ncn(-c2ccc(N3CCN(c4ccc(OC)cc4)CC3)cc2)c1=O (stereo not given)	-29%	-6%	5.6%	-8%	15%	-3%	-8%	?
CNc1cc(-n2nc(C)cc2-c2ccccc2)ncn1	-15%	-2%	3.9%	-7%	-20%	24%	2%	6%[46.1 µM]
COc1cc(C(=O)NCc2ccc(C)cc2)ccc1OC(F)F	-9%	-29%	-5.0%	-18%	?	15%	-25%	22%
Fc1ccc(CNC(=S)Nc2cccc(Cl)c2)cc1	4%	-17%	-5.5%	3%	?	-2%	-48%	-15%
CCCCC(=O)C1=C(N2CCCC2)CC(C)(C)CC1=O	21%	.	.	.	20%	7%	.	26%
COc1ccc(OC)c(Cc2nnc(CCC(=O)NC3CCCC3)o2)c1	20%	-1%	.	.	1%	2%	0%	18%[46.1 µM]
CCCN1CCN(C(=S)Nc2sc(CC)cc2C(=O)OC)CC1	0%	2%	.	.	.	-10%	-3%	.
CN1C(=O)c2ccccc2C(C(=O)NCCCN2CCCC2=O)C1c1c[nH]c2ccccc12 (stereo not given)	-18%	-2%	2.6%	-1%	1%	-9%	-2%	11%
Brc1ccc(-c2cn3cccnc3n2)cc1	35%[activator]	-17%	-3.9%	-13%	?	0%	-4%	6%
Cc1ccccc1NC(=O)CSC(N)=O	0%	-2%	-3.5%	-1%	-13%	7%	-40%	12%
COc1ccc(C(=O)COC(=O)CCN2C(=O)[C@@H]3[C@H](C2=O)[C@@H]2C[C@H]3C(Br)C2Br)cc1 (stereo not given in full)	-7%	10%	-3.1%	6%	2%	-25%	-5%	14%
C/C(=N\N=c1/sc2ccccc2n1C)c1ccc(N2CCOCC2)cc1	15%	-6%	.	.	-3%	-13%	5%	4%[46.1 µM]
COc1ccc(/C=C/c2nc3ccccc3c(=O)n2-c2cccc(C(=O)O)c2)cc1	-11%	-1%	.	.	8%[46.1 µM]	-6%	7%	4%[46.1 µM]
CCCNC(=O)C1(S(=O)(=O)c2ccccc2)CC=CC1	6%	1%	.	.	.	10%	8%	.
O=C(NC1CCCCC1)c1ccc(CS(=O)(=O)c2ccc(Cl)cc2)o1	0%	-4%	.	.	.	-13%	-27%	.
c1ccc2c(c1)OC1OC2Oc2ccccc21	-23%	.	.	.	2%[46.1 µM]	9%	.	22%
O=C(COc1ccccc1C(=O)c1cnn(-c2ccccc2)c1)Nc1ccccc1	0%	-32%	-6.0%	5%	-26%	-4%&1%	-1%	?
C=C1SC(Nc2c(C)cc(C)cc2C)=NC12CCCCC2	?	-1%	.	.	?	0%	-38%	3.5µM*
COCCOC1CCN(C(=O)c2cc(COc3ccc(-n4cncn4)cc3)on2)CC1	-23%	-2%	.	.	-17%	-7%	4%	2%
COc1cc(C2C(C#N)=C(N)Oc3n[nH]c(C)c32)ccc1OC(=O)c1ccccc1 (stereo not given)	.	1%	2.5%	-7%	23%	-10%	20%	0%
CN(C)S(=O)(=O)c1ccc(Cl)c(NC(=O)CN2CCN(c3ccccn3)CC2)c1	?	0%	.	.	?	-15%	-11%	3%[46.1 µM]
C=C(c1ccc(O)cc1)c1ccc(O)cc1	?	2%	-1.8%	-5%	1µM*	51%	-17%	6%

(continued)
SMILES	2A StopGo	SARS PLpro yeast	Cruzain Triton	Cruzain inh noDet	LASV entry inh	RE007 growth inh	NS1 inh	MARV entry inh
O=C(CN1C(=O)NC2(CCCCCC2)C1=O)Nc1ccc(S(=O)(=O)N2CCOCC2)cc1	-29%	13%	4.8%	10%	-4%	-11%	-5%	-8%
COC(=O)c1c(SCC(=O)Nc2ccccc2OC)[nH]c2ccccc2c1=O	-18%	.	-10%	-25%	16%[46.1 µM]	.	.	.
COc1cc2c(cc1OC)CN(S(=O)(=O)/C=C/c1ccccc1)CC2	-6%	1%	.	.	1.3µM*	-22%	-3%	?
S=C(NCc1ccco1)N1CCN(c2ccccc2Cl)CC1	0%	-4%	.	.	-4%[46.1 µM]	6%	.	-11%[46.1 µM]
COc1ccc(C(CC(=O)O)NS(=O)(=O)c2ccc(C)cc2)cc1 (stereo not given)	16%	4%	4.3%	-6%	-19%	8%	17%	-2%
COCCN(CCOC)C(=O)c1ccc(SCc2ccc(C)cc2)c([N+](=O)[O-])c1	-16%	0%	.	.	-23%	-6%	.	28%[46.1 µM]
CN(C)/C=N/c1cc(=O)n(C)c(=O)n1Cc1ccccc1	-14%	9%	0.3%&-2.7%	-7%&-1%	-8%	-13%	6%	8%
COc1ccccc1CN(C)S(=O)(=O)c1cccs1	19%	4%	.	.	5%[46.1 µM]	5%	-14%	7%[46.1 µM]
